TRPML1 ag – agonists of human TRPML1 channel; Q9GZU1; TRPML1-expressing cells, Ca2+ dye fluorescence, FDSS; host cell line not named in the record; reference of the full effect not given here; activation, % (no concentration beside the values); hit rate 0.12% among 410,000; AID 624414; in the data active = activation above about 50%; inconclusive = about 30% to 50%; inactive = below about 30%; note: 0% is about no effect; the text of the record puts the active cut at 80%
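Tet-induced TRPML1-DL cells, 1,500 per well, cultured overnight, were loaded with a no-wash Ca2+ dye for 45–90 min. Calcium fluorescence was recorded on the FDSS for 110 s after compound addition, before the EC80 agonist (4 uM 54-4) was added.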
D2 agonist – agonists of human D2 dopamine receptor (beta-arrestin). P14416. DiscoveRx PathHunter D2 beta-arrestin, luminescence, 90 min; 100% = 57 uM dopamine signal. activation, % (test concentration not listed). hit rate 0.084% among 360,000. AID 624465; in the data active = activation above about 40%; inconclusive = about 15% to 40%; inactive = below about 15%; note: compound concentration not given in the record; the text of the record calls up to 30% inactive
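DiscoveRx PathHunter D2 beta-arrestin cells (2,100/well) attached overnight, then compound-stimulated 90 min at 37 C in HBSS/10 mM HEPES/0.1% Tween-20 buffer; beta-galactosidase complementation read by luminescence after 1 h at ambient temperature. Dopamine 57 uM final (EC100) as control.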
Six1-Eya2 blk – blocks human Six1 binding to Eya2; Q15475+O00167; AlphaScreen GST-Six1/His-Eya2 binding, biochemical; active compounds read low; control for the full effect not named in the record; activity change, % (concentration not given with the values); hit rate 0.56% among 360,000; AID 651725; in the data active = activity change below about -65%; inconclusive = about -30% to -65%; inactive = above about -30%; note: % is set by controls: 0 for no effect and ±100 for the full control effect
Target sequence (O00167 whole entry, looked up): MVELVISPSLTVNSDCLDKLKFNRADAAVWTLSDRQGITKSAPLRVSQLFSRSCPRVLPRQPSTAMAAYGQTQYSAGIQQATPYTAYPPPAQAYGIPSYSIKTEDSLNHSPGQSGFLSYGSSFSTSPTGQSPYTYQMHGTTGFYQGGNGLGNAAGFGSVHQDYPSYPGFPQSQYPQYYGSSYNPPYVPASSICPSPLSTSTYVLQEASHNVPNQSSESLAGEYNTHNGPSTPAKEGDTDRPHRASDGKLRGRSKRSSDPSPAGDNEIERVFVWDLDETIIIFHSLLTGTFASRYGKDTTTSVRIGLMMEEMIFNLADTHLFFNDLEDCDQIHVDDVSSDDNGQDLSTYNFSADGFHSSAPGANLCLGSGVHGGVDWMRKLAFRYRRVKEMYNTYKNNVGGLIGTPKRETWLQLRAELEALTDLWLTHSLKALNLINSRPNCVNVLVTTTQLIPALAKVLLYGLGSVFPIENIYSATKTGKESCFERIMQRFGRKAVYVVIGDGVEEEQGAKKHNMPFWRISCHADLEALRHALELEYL
Target sequence (Q15475 whole entry, looked up): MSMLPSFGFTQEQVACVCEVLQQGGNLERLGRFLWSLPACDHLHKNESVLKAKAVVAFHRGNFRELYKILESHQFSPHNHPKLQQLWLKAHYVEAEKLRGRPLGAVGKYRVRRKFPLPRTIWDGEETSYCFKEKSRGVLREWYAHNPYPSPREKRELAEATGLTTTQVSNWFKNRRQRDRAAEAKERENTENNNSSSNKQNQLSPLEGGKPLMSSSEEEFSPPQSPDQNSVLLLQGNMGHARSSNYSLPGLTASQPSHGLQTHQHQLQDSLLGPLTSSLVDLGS
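AlphaScreen luminescence read after one hour at 37 °C in darkness. Pin-transferred compounds met GST-Six1 and His-Eya2 protein (5X stock 250 nM/500 nM) plus glutathione donor and Ni-chelate acceptor beads (5X, 50 ug/mL).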
D2 potentiator – human D2 receptor positive allosteric modulation; P14416; DiscoveRx D2 beta-arrestin cells, luminescence, 90 min; 100% = 57 uM dopamine signal; potentiation, % (no concentration beside the values); hit rate 0.23% among 360,000; AID 624464; active = potentiation of 50% or more; inconclusive = 30% to 50%; inactive = 30% or less;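 note: compound concentration not given in the record; tested on top of an EC20 dose of dopamine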
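D2 cells co-treated with compound plus 50 nM dopamine (EC20) for 90 min at 37 deg C to detect potentiation. Beta-arrestin recruitment was read as enzyme-fragment luminescence after 1 h at ambient temperature. Full response was set by 57 uM dopamine.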
TRPML1 inh – blocks the human TRPML1 channel | Q9GZU1 | TRPML1-inducible cells, Ca2+ dye fluorescence, FDSS; active compounds read low; inhibition of EC80 agonist-evoked calcium signal | activity change, negative = inhibition, % (test concentration not listed) | hit rate 0.02% among 390,000 | AID 624415; in the data active means activity change below about -50%; inconclusive means about -30% to -50%; inactive means above about -30%;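 note: stimulus is agonist 54-4 at its EC80 concentration; % is set by controls: 0 for no effect and ±100 for the full control effect; compound concentration not given in the record; the text of the record puts the active cut at -80%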
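Tet-induced TRPML1-DL cells loaded with Ca8 no-wash calcium dye were read kinetically on FDSS. Compound addition was followed by EC80 agonist 54-4 (4 uM final); inhibition was read over 110 s.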
PINK1 modulator – PINK1 expression modulation | Potency, µM (highest dose often 76.6 µM), inactives show at the highest dose activation (PINK1 increase), usual class: activators | PINK1 immunofluorescence, high-content cytometry, 24 h | AID 624263 | hit rate 0.2% among 410,000; active = well fitted activation curve with a large enough effect; inconclusive = small, poorly fitted or top-dose-only effect; inactive = flat fitted curve, though single readings scatter; cell line not stated here;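 note: potency is the fitted concentration of half-maximal effect; % of control where 0% means no effect; nearly all actives have a fitted effect of over 65% in size; a mitochondrial uncoupler was the plate control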
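Cells are seeded, rested 12 hours, then given compound at five concentrations or DMSO for 24 hours. After fixation, blocking and antibody staining, PINK1 amount and mitochondrial localization are scored; CCCP serves as control.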
* = called active by the depositor; & = joins results of further samples; [ ] = another dose, or the depositor's remark.

COc1ccc(CN2CCC(CNS(=O)(=O)c3cccc(C(F)(F)F)c3)CC2)cc1 was read as TRPML1 ag 0.2, D2 agonist -1.8, Six1-Eya2 blk -2.9, D2 potentiator -16.6, TRPML1 inh -5.0 and PINK1 modulator 2.4%.
`O=C(Cc1ccccc1F)c1ccc(O)cc1O` gave TRPML1 ag 1.8, D2 agonist -2.4, Six1-Eya2 blk 3.7, D2 potentiator -4.4, TRPML1 inh 7.4 and PINK1 modulator -0.3%.
`CC(NC(=O)CSc1nnc(-c2cccc(S(=O)(=O)N3CCCCC3)c2)o1)C12CC3CC(CC(C3)C1)C2` (stereo not given) gave TRPML1 ag -0.2, D2 agonist 1.0, Six1-Eya2 blk -1.5, D2 potentiator 58.4*, TRPML1 inh -20.5 and PINK1 modulator 0.3%.
CCOC(=O)CC(NC(=O)c1ccc(C)cc1)c1ccc(C)cc1 (stereo not given) was read as TRPML1 ag -1.2, D2 agonist -2.0, Six1-Eya2 blk -0.9, D2 potentiator -12.6, TRPML1 inh -5.1 and PINK1 modulator -1.1%.
Screening Cc1ccc(C)c(S(=O)(=O)Nc2nc3ccc(S(N)(=O)=O)cc3s2)c1 returned TRPML1 ag 2.0, D2 agonist -1.9, Six1-Eya2 blk -2.8, D2 potentiator -4.6, TRPML1 inh 6.6 and PINK1 modulator 2.1%.
Screening CN(CC(=O)Nc1ccccc1Br)C(=O)c1ccccc1Sc1ccccc1C#N returned TRPML1 ag -0.7, D2 agonist -2.8, Six1-Eya2 blk 0.0, D2 potentiator -0.1, TRPML1 inh 9.8 and PINK1 modulator -0.7%.
Screening COc1ccc(C(CNC(=O)C2CC(=O)N(Cc3ccc(C)cc3)C2)N(C)C)cc1 (stereo not given) returned TRPML1 ag -0.9, D2 agonist -2.7, Six1-Eya2 blk -0.6, D2 potentiator -18.5, TRPML1 inh 1.3 and PINK1 modulator -11.6%[38.3 µM].
For O=C(CNC(=O)c1cccnc1)N=Nc1c(O)[nH]c2c(Br)cc(Br)cc12 the results were TRPML1 ag -0.3, D2 agonist -2.2, Six1-Eya2 blk 3.2, D2 potentiator 3.7, TRPML1 inh -2.4 and PINK1 modulator 2.2%.
For CCN(CC)S(=O)(=O)c1ccc(N2CCOCC2)c(NC(=O)C23CC4CC(CC(Cl)(C4)C2)C3)c1 the results were TRPML1 ag 1.1, D2 agonist -4.3, Six1-Eya2 blk -6.0, D2 potentiator -13.7, TRPML1 inh 53.7 and PINK1 modulator -0.5%.
CN1C(=O)S/C(=C/c2ccc(OCc3cccc(C(=O)O)c3)cc2)C1=O was read as TRPML1 ag 0.3, D2 agonist 3.7, Six1-Eya2 blk 5.9, D2 potentiator 19.7, TRPML1 inh 32.3 and PINK1 modulator -0.6%.
`O=C(c1nc2ccc(Cl)cn2c1CNCCn1ccnc1)N1CCCCCCC1` gave TRPML1 ag 0.7, D2 agonist -4.0, Six1-Eya2 blk 1.7, D2 potentiator -11.1, TRPML1 inh -8.9 and PINK1 modulator 0.3%.
For Cc1ccc(SCC(=O)N(C)C2CCS(=O)(=O)C2)c(C)c1 (stereo not given) the results were TRPML1 ag -0.3, D2 agonist 0.6, Six1-Eya2 blk 18.5, D2 potentiator -3.0, TRPML1 inh -2.7 and PINK1 modulator 2.3%.
Screening Cc1nnc(NC(=O)CSc2nnc(CNC(=O)c3ccccc3)n2-c2ccccc2)s1 returned TRPML1 ag 0.3, D2 agonist -4.8, Six1-Eya2 blk -2.6, D2 potentiator -10.8, TRPML1 inh -2.5 and PINK1 modulator 3.8%.
`O=C(Nc1ccc(S(=O)(=O)N2CCOCC2)cc1)c1ccc(=O)[nH]c1` gave TRPML1 ag 0.0, D2 agonist -0.3, Six1-Eya2 blk -4.4, D2 potentiator 2.4, TRPML1 inh -1.6 and PINK1 modulator -1.0%.
For CCOP(=O)(OCC)/C(C#N)=C/c1c[nH]c2ccccc12 the results were TRPML1 ag 2.4, D2 agonist -0.6, Six1-Eya2 blk -7.3, D2 potentiator -2.5, TRPML1 inh -13.0 and PINK1 modulator -0.5%.
Cc1ccc(-n2c(=O)cc(N3CCCCCC3)[nH]c2=O)cc1 was read as TRPML1 ag -0.3, D2 agonist -2.4, Six1-Eya2 blk -2.3, D2 potentiator -1.5, TRPML1 inh -7.4 and PINK1 modulator 3.9%.
For COc1ccc(CCNC(=O)CC2C(=O)NCCN2CC(C)(C)C)cc1 (stereo not given) the results were TRPML1 ag -0.2, D2 agonist 1.9, Six1-Eya2 blk -1.3, D2 potentiator 1.3, TRPML1 inh -5.1 and PINK1 modulator -0.7%.
`O=C(NCCN1CCOCC1)c1cc(Sc2cccc(Cl)c2)nc2ccccc12` gave TRPML1 ag 0.6, D2 agonist -2.3, Six1-Eya2 blk 9.2, D2 potentiator -32.3, TRPML1 inh 2.8 and PINK1 modulator -1.1%.
CCOc1ccc(S(=O)(=O)Nc2ccc(C(=O)N3CC(C)OC(C)C3)cc2)cc1 (stereo not given) was read as TRPML1 ag 5.5, D2 agonist -3.1, Six1-Eya2 blk 4.7, D2 potentiator -23.1, TRPML1 inh -20.9 and PINK1 modulator 0.7%.
O=C(O)CCN(CCC(=O)O)c1ccccc1 was read as TRPML1 ag -0.3, D2 agonist -1.0, Six1-Eya2 blk -1.4, D2 potentiator -7.0, TRPML1 inh 3.0 and PINK1 modulator -0.3%.
CC1CCN(S(=O)(=O)c2ccc3nc(NCc4ccccc4)ccc3c2)CC1 was read as TRPML1 ag 4.0, TRPML1 inh 30.6 and PINK1 modulator 0.7%.
`C=CCn1c(SCc2ccc(C#N)cc2)nnc1-c1ccccc1` gave TRPML1 ag 0.4, D2 agonist -0.4, Six1-Eya2 blk 2.1, D2 potentiator -3.8, TRPML1 inh -10.6 and PINK1 modulator -5.2%[38.3 µM].
COc1ccc(OC)c(NC(=O)COc2coc(CN3CCc4ccccc43)cc2=O)c1 was read as TRPML1 ag 0.4, D2 agonist -0.1, Six1-Eya2 blk -7.5, D2 potentiator -15.9, TRPML1 inh 9.3 and PINK1 modulator 1.8%.
COc1ccc(C)cc1NC(=O)c1oc2ccc(S(=O)(=O)N3CCC4(CC3)OCCO4)cc2c1C was read as TRPML1 ag 1.4, TRPML1 inh 4.1 and PINK1 modulator 2.8%.

2 compounds drawn at random from the list so far:
For CCN(CC)S(=O)(=O)c1ccc(N2CCOCC2)c(NC(=O)C23CC4CC(CC(Cl)(C4)C2)C3)c1 the results were TRPML1 ag 1.1, D2 agonist -4.3, Six1-Eya2 blk -6.0, D2 potentiator -13.7, TRPML1 inh 53.7 and PINK1 modulator -0.5%.
COc1ccc(OC)c(NC(=O)COc2coc(CN3CCc4ccccc43)cc2=O)c1 was read as TRPML1 ag 0.4, D2 agonist -0.1, Six1-Eya2 blk -7.5, D2 potentiator -15.9, TRPML1 inh 9.3 and PINK1 modulator 1.8%.

Next structures follow:
For Cc1cc(C)c2cc(C(=O)N3CCC(C(=O)c4ccc(F)cc4)CC3)[nH]c2c1 the results were TRPML1 ag -0.2, D2 agonist 3.8, Six1-Eya2 blk -2.8, D2 potentiator 2.5, TRPML1 inh -5.1 and PINK1 modulator 3.0%.
Screening CN(Cc1ccccc1)CC(O)COc1ccc(CNCCOc2cccnc2)cc1 (stereo not given) returned TRPML1 ag -0.6, D2 agonist inconclusive, Six1-Eya2 blk 0.3, D2 potentiator -2.2, TRPML1 inh 1.0 and PINK1 modulator 3.3%.
For O=C(Nc1ccccc1Cl)N1CCC(CN2CCCCC2)CC1 the results were TRPML1 ag -0.7, TRPML1 inh -7.7 and PINK1 modulator 5.5%.
CC(=O)c1cccc(NC(=O)CN(C)Cc2ccc(OC(F)F)cc2)c1 was read as TRPML1 ag 1.3, D2 agonist 0.1, Six1-Eya2 blk 3.8, D2 potentiator -5.4, TRPML1 inh 7.8 and PINK1 modulator 1.6%.
O=S(=O)(c1ccc(Br)cc1)c1nc(-c2ccco2)oc1SCc1ccccc1F was read as TRPML1 ag -0.3, TRPML1 inh -18.5 and PINK1 modulator 4.9%.
`COc1cccc(-c2nn3c(-c4ccccn4)nnc3s2)c1` gave TRPML1 ag -0.3, D2 agonist -2.3, Six1-Eya2 blk inconclusive, D2 potentiator 0.8, TRPML1 inh -4.6 and PINK1 modulator 3.1%.
CCOc1ccc(CNC(=O)c2cc3oc4ccccc4c3n2C)cc1 was read as TRPML1 ag 4.5&0.9, D2 agonist -1.7, Six1-Eya2 blk -2.1, D2 potentiator -7.0, TRPML1 inh 1.3&8.2 and PINK1 modulator -0.5%&2.0%.
For Cc1ccc(C(c2nnnn2CCC(C)C)N2CCN(C)CC2)cc1 (stereo not given) the results were TRPML1 ag 0.0, D2 agonist -7.8, Six1-Eya2 blk 6.2, D2 potentiator -8.0, TRPML1 inh 13.9 and PINK1 modulator -1.1%.
CN(C)NC(=O)c1csnc1-c1c(Cl)cccc1Cl was read as TRPML1 ag 1.2, D2 agonist -0.9, Six1-Eya2 blk -3.0, D2 potentiator -0.9, TRPML1 inh -4.6 and PINK1 modulator 1.6%.
`CCOC(=O)C1CCN(C(=O)CSc2c3c(nc4ccc(Cl)cc24)CCCC3)CC1` gave TRPML1 ag 1.9, TRPML1 inh -13.2 and PINK1 modulator 1.0%.
For Cc1ccc(Cn2cnc3c(cnn3C(C)(C)C)c2=O)cc1 the results were TRPML1 ag 3.6&0.5, D2 agonist 2.0, Six1-Eya2 blk 3.0, D2 potentiator 6.0, TRPML1 inh 8.3&-7.0 and PINK1 modulator 3.9%.
Screening COc1ccc(-c2cc(C)no2)cc1S(=O)(=O)N1CCCN(Cc2ccc(F)cc2)C1 returned TRPML1 ag -0.5, D2 agonist -3.9, Six1-Eya2 blk 7.5, D2 potentiator -22.7, TRPML1 inh -6.4 and PINK1 modulator 0.1%.
Screening COc1ccccc1CCNC(=O)C(=O)NCC1OCCN1S(=O)(=O)c1ccc(OC)c(OC)c1 (stereo not given) returned TRPML1 ag -0.1, D2 agonist 5.9, Six1-Eya2 blk -1.2, D2 potentiator -1.4, TRPML1 inh 1.6 and PINK1 modulator 0.1%.
Cc1ccc(S(=O)(=O)c2cc3c(=O)n4ccccc4nc3n(CCCN3CCOCC3)c2=N)cc1C was read as TRPML1 ag -0.9, D2 agonist -4.2, Six1-Eya2 blk -9.8, D2 potentiator -14.2, TRPML1 inh 7.4 and PINK1 modulator -0.4%.
Screening CCc1c(C)nc2cc(-c3cc(OC)cc(OC)c3)nn2c1N1CCCC1 returned TRPML1 ag 0.6, D2 agonist 3.3, Six1-Eya2 blk -0.7, D2 potentiator -11.1, TRPML1 inh 2.4 and PINK1 modulator inconclusive.
Screening COc1cc(NC(=O)CN2C(=O)NC(C)(c3ccc(OC(F)F)cc3)C2=O)cc(OC)c1OC (stereo not given) returned TRPML1 ag 4.3, D2 agonist 0.6, Six1-Eya2 blk -0.1, D2 potentiator 1.1, TRPML1 inh -3.5 and PINK1 modulator 4.1%.
For CCc1ccc(C2C(C#N)=C(N)N(N(C)C)C3=C2C(=O)CCC3)cc1 (stereo not given) the results were D2 agonist -1.6, Six1-Eya2 blk -5.9, D2 potentiator 2.8 and PINK1 modulator 1.5%.
O=C(Nc1ccccc1F)c1ccc2c(Cl)c3c(nc2c1)CCC3 was read as TRPML1 ag -1.1, TRPML1 inh 44.2 and PINK1 modulator 2.8%.

Source: PubChem (National Center for Advancing Translational Sciences (NCATS))
